Screens: PubChem, Broad Institute
BJeLR viab HTS: lowers viability of BJeLR cells. hit rate 0.64% among 30,000. BJeLR fibroblasts viability, CellTiterGlo ATP luminescence, 48 h; HRASV12, hTERT and SV40 LT/ST transformed. AID 2275. viability loss activity score, % (concentration not given with the values); in the data active means viability loss activity score above about 50%; about a fifth of its hits are not listed in these tables;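 further: higher score means fewer live cells and less ATP luminescence; stock transfer was 50 or 100 nL into about 30 µL; 0% = vehicle wells and 100% = a reference killing control; one replicate is shown; the record names a cut of 85%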
A1 inhib: A1 inhibition; MEF A1-2A-BIM cells, caspase-Glo luminescence, 3 h; percent of clofoctol signal, DMSO as zero; caspase activation, % (concentration not given with the values); hit rate 0.51% among 21,000; AID 2241;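 active means most replicate scores above 10, or exactly half above 10 with mean activity above 10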;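 further: effector caspase 3 and 7 activity cleaving a DEVD luciferin substrate; 50 nL library stock added to about 30 µL; numbers are from one replicate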
* = called active by the depositor; / = no result given. These rows are one share of the data; count on the stated rates, not on these rows.

Fields: BJeLR viab HTS | A1 inhib
> CC(C)NC(=O)Nc1cccc2c1O[C@H](CN(C)Cc1ccc(-c3ccccc3)cc1)[C@H](C)CN([C@@H](C)CO)C2=O
  3.7 | /
> C[C@H](CO)N1C[C@H](C)[C@H](CN(C)Cc2ccc(C(=O)Nc3ccccc3N)cc2)Oc2ccc(NS(C)(=O)=O)cc2C1=O
  3.5 | /
> N#CC1=C(N)Oc2n[nH]c(-c3ccccc3)c2C1c1ccoc1 (centres undefined)
  -3.3 | 1.1
> O=C(NCc1ccc2c(c1)OCO2)c1cc2ccccc2o1
  2.3 | -1.6
> C[C@@H]1CN([C@H](C)CO)C(=O)c2cccc(NC(=O)c3ccncc3)c2O[C@H]1CN(C)Cc1ccccc1
  -2.0 | /
> O=C(Cc1ccc(O)cc1)OC1[C@@H](O)[C@@H](O)C(OC(=O)Cc2ccc(O)cc2)[C@H](O)[C@@H]1O (some centres undefined)
  3.2 | 0.0
> Cc1cc(C(=O)Nc2cccc3c2O[C@H](CN(C)S(=O)(=O)c2c(C)noc2C)[C@H](C)CN([C@H](C)CO)C3=O)n(C)n1
  0.1 | /
> CC1CN(C)C(c2ccccc2)C(C)C12NC(=O)NC2=O (centres undefined)
  -1.5 | 0.2
> CC1CC(C)CN(C(=O)C2c3ccccc3Oc3ccccc32)C1 (centres undefined)
  -2.9 | 1.1
> Cc1cc(C)nc(SCc2nnc(SCC(=O)NCc3ccccc3)o2)n1
  -1.4 | 1.5
> C[C@@H]1CN([C@H](C)CO)C(=O)c2cccc(NS(=O)(=O)c3cn(C)cn3)c2O[C@@H]1CN(C)S(=O)(=O)c1ccc(Cl)cc1
  2.6 | /
> CC(C)NC(=O)N(C)C[C@@H]1Oc2ccc(NS(=O)(=O)c3cccs3)cc2C(=O)N([C@@H](C)CO)C[C@@H]1C
  -3.9 | -0.3
> COc1ccc(S(=O)(=O)N(C)C[C@H]2Oc3ccc(N(C)C)cc3C(=O)N([C@@H](C)CO)C[C@H]2C)cc1
  -0.3 | 5.8
> C[C@H](CO)N1C[C@H](C)[C@@H](CN(C)Cc2ccc(Cl)c(Cl)c2)Oc2ccc(NC(=O)NC3CCCCC3)cc2C1=O
  -0.8 | 0.3
> C[C@H](CO)N1C[C@H](C)[C@@H](CN(C)Cc2ccccc2)Oc2c(NC(=O)c3ccncc3)cccc2C1=O
  4.1 | /
> Cc1noc(C)c1NC(=O)Nc1ccc2c(c1)C(=O)N([C@H](C)CO)C[C@@H](C)[C@H](CN(C)Cc1ccc(C(F)(F)F)cc1)O2
  -1.4 | 0.2
> COC(OC)C1Nc2ccccc2C(=O)N1c1cccc(C(F)(F)F)c1 (centres undefined)
  1.7 | -0.3
> C[C@@H]1CN([C@@H](C)CO)C(=O)c2cc(NC(=O)C3CC3)ccc2O[C@@H]1CN(C)S(=O)(=O)c1ccc(Cl)cc1
  2.1 | -0.1
> C(=N\N1CCN(Cc2cccc3ccccc23)CC1)/c1ccco1
  4.3 | 0.3
> COC(=O)c1c(NC(=O)c2ccc(S(=O)(=O)N3CCCCC3C)cc2)sc2c1CCN(C)C2 (centres undefined)
  11 | -0.7
> CC(C)(C)c1ccc(NC(=O)c2ccc(N3C(=O)CSCC3=O)cc2)cc1
  8.3 | 0.3
> Cc1cc(C(=O)N2CCN(C(c3ccccc3)c3ccccc3)CC2)no1
  3.6 | /
> CN1C(=O)C(CC(=O)Nc2ccc(F)cc2)N(Cc2ccccc2)C1=S (centres undefined)
  4.3 | 1.2
> CC(C)NC(=O)N(C)C[C@H]1Oc2ccc(N(C)C)cc2C(=O)N([C@@H](C)CO)C[C@H]1C
  -3.8 | 0.2
> CCN(C(C)=O)c1nnc(CSc2nc3ccccc3s2)s1
  4.8 | -3.0
> O=C(NCCCN1CCCCC1)c1ccc2c(c1)NC(=O)c1ccccc1S2
  6.7 | 0.5
> CNC[C@@H]1Oc2c(NC(=O)C3CCCCC3)cccc2C(=O)N([C@@H](C)CO)C[C@H]1C
  1.8 | /
> CC(=O)C(C#N)C(=O)Nc1cc(Br)ccc1Br (centres undefined)
  6.1 | -1.7
> C[C@H]1CN([C@@H](C)CO)C(=O)c2cc(NS(=O)(=O)c3ccc(F)cc3)ccc2O[C@@H]1CN(C)C(=O)Nc1cccc2ccccc12
  -0.8 | -0.2
> Cc1ccc(S(=O)(=O)Nc2cccc3c2O[C@@H](CN(C)Cc2ccncc2)[C@@H](C)CN([C@@H](C)CO)C3=O)cc1
  0.2 | /
> Cc1cc(/N=C\N(C)C)n2c(nc3ccccc32)c1C#N
  -7.2 | 0.2
> COc1ccc(NC(=O)Nc2cccc3c2O[C@@H](CN(C)Cc2ccc(C(=O)O)cc2)[C@H](C)CN([C@@H](C)CO)C3=O)cc1
  2.1 | /
> O=C(O)c1oc(C(=O)O)c(OCc2ccccc2)c1OCc1ccccc1
  -0.3 | 0.3
> C[C@H](CO)N1C[C@H](C)[C@@H](CN(C)C(=O)Nc2ccc(F)cc2)Oc2ccc(NC(=O)C3CC3)cc2C1=O
  2.3 | 0.1
> COc1ccc(NC(=O)Nc2ccc3c(c2)C(=O)N([C@@H](C)CO)C[C@@H](C)[C@H](CN(C)C(=O)Nc2ccc(F)cc2)O3)cc1
  2.2 | -0.7
> O=C(c1ccc2nc3ccccc3c(=O)n2c1)N1CCN(c2ccc(Cl)cc2)CC1
  -0.6 | -0.2
> Cc1cc(C(=O)Nc2cccc3c2O[C@@H](CN(C)Cc2ccncc2)[C@@H](C)CN([C@H](C)CO)C3=O)n(C)n1
  13 | /
> Cc1cc(C(=O)Nc2cccc3c2O[C@@H](CN(C)C)[C@@H](C)CN([C@@H](C)CO)C3=O)n(C)n1
  0.7 | /
> Cc1noc(C)c1NC(=O)N(C)C[C@H]1Oc2ccc(NC(=O)NC3CCCCC3)cc2C(=O)N([C@@H](C)CO)C[C@@H]1C
  -4.8 | 1.0
> C[C@H]1CN([C@@H](C)CO)C(=O)c2cccc(NC(=O)c3cnccn3)c2O[C@H]1CN(C)Cc1ccc(Oc2ccccc2)cc1
  1.2 | /
> CCOC(=O)C(N)Cc1ccccc1 (centres undefined)
  -0.7 | -0.2
> COC(=O)c1sccc1NC(=O)Cc1noc2ccc(C)cc12
  -1.9 | 0.1
> C[C@H](CO)N1C[C@H](C)[C@H](CN(C)C(=O)NC2CCCCC2)Oc2c(NS(=O)(=O)c3cn(C)cn3)cccc2C1=O
  1.2 | /
> Cc1nc2c(C(=O)NC3CC3)c[nH]n2c(=O)c1Cc1ccccc1F
  3.1 | /
> Cc1noc(C)c1NC(=O)N(C)C[C@@H]1Oc2c(NC(=O)Nc3ccc4c(c3)OCO4)cccc2C(=O)N([C@H](C)CO)C[C@@H]1C
  -1.3 | /
> Cc1ccc(S(=O)(=O)Nc2cccc3c2O[C@H](CN(C)Cc2ccc(C(F)(F)F)cc2)[C@H](C)CN([C@H](C)CO)C3=O)cc1
  8.1 | /
> C[C@H](CO)N1C[C@H](C)[C@@H](CN(C)S(=O)(=O)c2ccccc2)Oc2ccc(NC(=O)Cc3ccccc3)cc2C1=O
  0.9 | -0.4
> C[C@@H]1CN([C@H](C)CO)C(=O)c2cc(NC(=O)Cc3ccccc3)ccc2O[C@@H]1CN(C)S(=O)(=O)c1ccc(F)cc1
  2.9 | 1.3
> NC(=O)CSc1cn(CC(=O)N2CCOCC2)c2ccccc12
  -4.9 | 0.7
> C[C@H]1CN([C@@H](C)CO)C(=O)c2cc(NC(=O)Nc3ccc(C(F)(F)F)cc3)ccc2O[C@@H]1CN(C)S(=O)(=O)c1ccc(Cl)cc1
  1.9 | 0.3
> COc1ccc(S(=O)(=O)N(C)C[C@H]2Oc3ccc(NS(=O)(=O)c4cccs4)cc3C(=O)N([C@H](C)CO)C[C@H]2C)cc1
  4.2 | -0.7
> CC(=O)NC(c1ccccc1)c1ccccc1
  2.3 | -0.3
> NC(=S)c1nc(-c2ccccc2)oc1N
  -4.6 | -1.8
> COc1ccc(NC(=O)N(C)C[C@@H]2Oc3c(NS(=O)(=O)c4ccc(C)cc4)cccc3C(=O)N([C@H](C)CO)C[C@@H]2C)cc1
  -0.7 | /
> Oc1ccc([C@@H]2Oc3cc(O)cc(O)c3C[C@@H]2O)cc1
  -4.2 | 0.2
> C[C@@H]1CN([C@@H](C)CO)C(=O)c2cc(NC(=O)CCCCCC(=O)Nc3ccccc3N)ccc2O[C@H]1CN(C)S(=O)(=O)c1cn(C)cn1
  -12 | /
> COc1ccc(CN(C)C[C@H]2Oc3ccc(NC(=O)Nc4ccc(C(F)(F)F)cc4)cc3C(=O)N([C@@H](C)CO)C[C@@H]2C)cc1
  -4.0 | 0.0
> Cc1ccc(S(=O)(=O)Nc2ccc3c(c2)C(=O)N([C@@H](C)CO)C[C@H](C)[C@@H](CN(C)Cc2ccncc2)O3)cc1
  5.1 | 0.4
> CC(C)NC(=O)N(C)C[C@@H]1Oc2c(NS(=O)(=O)c3ccc(F)cc3)cccc2C(=O)N([C@H](C)CO)C[C@H]1C
  1.0 | /
> Cc1cccc(NC2=NS(=O)(=O)c3ccccc3N2)c1
  5.1 | -1.2

Single values from the entries so far:
Value of `C[C@@H]1CN([C@H](C)CO)C(=O)c2cc(NC(=O)Cc3ccccc3)ccc2O[C@@H]1CN(C)S(=O)(=O)c1ccc(F)cc1` in BJeLR viab HTS: 2.9
Value of `C[C@H](CO)N1C[C@H](C)[C@@H](CN(C)S(=O)(=O)c2ccccc2)Oc2ccc(NC(=O)Cc3ccccc3)cc2C1=O` in BJeLR viab HTS: 0.9

Three records drawn at random from those above:
Fields: BJeLR viab HTS | A1 inhib
> CC(=O)NC(c1ccccc1)c1ccccc1
  2.3 | -0.3
> COc1ccc(NC(=O)N(C)C[C@@H]2Oc3c(NS(=O)(=O)c4ccc(C)cc4)cccc3C(=O)N([C@H](C)CO)C[C@@H]2C)cc1
  -0.7 | /
> Cc1ccc(S(=O)(=O)Nc2ccc3c(c2)C(=O)N([C@@H](C)CO)C[C@H](C)[C@@H](CN(C)Cc2ccncc2)O3)cc1
  5.1 | 0.4

Continued:
Fields: BJeLR viab HTS | A1 inhib
> COC1=CC(=O)O[C@@H](CCc2ccccc2)[C@@H]1O
  0.8 | -0.3
> NS(=O)(=O)c1ccc(CNS(=O)(=O)c2ccccc2)cc1
  2.6 | 0.4
> C[C@H](CO)N1C[C@H](C)[C@@H](CN(C)Cc2ccc(C(F)(F)F)cc2)Oc2c(NC(=O)Nc3ccccc3)cccc2C1=O
  -5.5 | /
> C[C@@H]1CN([C@@H](C)CO)C(=O)c2cc(NC(=O)Cn3cnnn3)ccc2O[C@H]1CN(C)Cc1ccncc1
  -1.8 | 0.3
> O=C(CSC(=S)N1CCOCC1)c1c[nH]c2ccccc12
  0.0 | -0.9
> COc1ccc(/C=C/c2cc(O)cc(O[C@@H]3O[C@H](CO)[C@@H](O)[C@H](O)[C@H]3O)c2)cc1O
  -7.6 | 0.3
> Cc1noc(C)c1S(=O)(=O)N(C)C[C@@H]1Oc2c(NC(=O)c3cnccn3)cccc2C(=O)N([C@H](C)CO)C[C@@H]1C
  -3.7 | /
> O=C(/C=C/CCc1ccccc1)CCc1ccccc1
  -5.4 | -0.3
> O=C(NCc1cccs1)c1cc2c(s1)-c1ccccc1OC2
  1.7 | -0.6
> CS(=O)(=O)c1ccc(C(=O)Nc2ccccc2Cl)cc1
  9.4 | -0.3
> COc1ccc(CCn2c(=S)[nH]c3cc(C(F)(F)F)ccc32)cc1OC
  4.8 | 0.4
> O=C(c1ccc(Br)cc1)N1CCC(Cc2ccccc2)CC1
  6.0 | -0.6
> CCOc1ccc(NC(=S)NC(C)(C)CC)cc1
  -3.1 | 0.8
> CC1(C)CC[C@]2(C(=O)O[C@@H]3O[C@H](CO)[C@@H](O)[C@H](O)[C@H]3O)CC[C@]3(C)C(=CCC4[C@@]5(C)CC[C@H](O[C@@H]6O[C@H](C(=O)O)[C@@H](O[C@@H]7O[C@H](CO)[C@@H](O)[C@H](O)[C@H]7O)[C@H](O)[C@H]6O[C@@H]6O[C@H](CO)[C@@H](O)[C@H](O)[C@H]6O)C(C)(C)C5CC[C@]43C)C2C1 (some centres undefined)
  1.3 | 0.3
> C[C@@H]1CN([C@@H](C)CO)C(=O)c2cccc(NC(=O)Nc3ccc(C(F)(F)F)cc3)c2O[C@H]1CN(C)Cc1ccc(Oc2ccccc2)cc1
  5.6 | /
> CCCCN(C)C(=O)C1c2ccccc2C(=O)N(Cc2ccc(F)cc2)C1c1ccc(OC)cc1 (centres undefined)
  1.9 | /
> CC1(C)CC(N=Cc2ccco2)CC(C)(C)N1
  -4.8 | -1.1
> C[C@H]1CN([C@@H](C)CO)C(=O)c2cc(NC(=O)CCCCCC(=O)Nc3ccccc3N)ccc2O[C@@H]1CN(C)C(=O)Nc1ccc2c(c1)OCO2
  2.0 | /
> CCCc1nnc2n1N=C(c1ccc(Br)cc1)CS2
  1.0 | 0.2
> O=C(NC1(c2ccccc2)CC1)N1CCN(c2ccccc2)CC1
  -0.2 | 1.0
> COCCn1c(=NC(=O)CSCC(=O)N2CCCc3ccccc32)sc2cc(OC)ccc21
  -4.2 | /
> C[C@H](CO)N1C[C@H](C)[C@H](CN(C)Cc2ccccc2)Oc2ccc(NS(=O)(=O)c3ccccc3)cc2C1=O
  -2.5 | 0.6
> CC(C)NC(=O)Nc1ccc2c(c1)C(=O)N([C@H](C)CO)C[C@H](C)[C@H](CN(C)Cc1ccc(C(=O)O)cc1)O2
  0.9 | -0.5
> C[C@H]1CN([C@@H](C)CO)C(=O)c2cccc(N(C)C)c2O[C@@H]1CN(C)C(=O)Nc1ccc(C(F)(F)F)cc1
  1.0 | /
> COc1ccc(NC(=O)Nc2cccc3c2O[C@@H](CN(C)C(=O)Nc2ccc(OC)cc2)[C@@H](C)CN([C@H](C)CO)C3=O)cc1
  1.2 | /
> C[C@@H]1CN([C@H](C)CO)C(=O)c2cccc(NS(C)(=O)=O)c2O[C@@H]1CN(C)Cc1ccc(C(=O)O)cc1
  1.1 | /
